Rce1 inh: yeast Rce1p protease inhibitors, primary screen, biochemical, fluorescence, cell-free homogeneous; CAAX prenyl protease 2 (Saccharomyces cerevisiae (strain ATCC 204508 / S288c)), Q03530; yeast membranes, quenched prenylated peptide cleavage fluorescence; calls only; actives 0.27% (n = 290,000);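 active = fall in fluorescence gain of 50% or more versus controls, with final raw signal at or below 3038400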;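 note: plate controls were neutral control wells for no effect and wells lacking membranes for full effect; tested at 10 µM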
Target sequence (Q03530 whole entry, looked up): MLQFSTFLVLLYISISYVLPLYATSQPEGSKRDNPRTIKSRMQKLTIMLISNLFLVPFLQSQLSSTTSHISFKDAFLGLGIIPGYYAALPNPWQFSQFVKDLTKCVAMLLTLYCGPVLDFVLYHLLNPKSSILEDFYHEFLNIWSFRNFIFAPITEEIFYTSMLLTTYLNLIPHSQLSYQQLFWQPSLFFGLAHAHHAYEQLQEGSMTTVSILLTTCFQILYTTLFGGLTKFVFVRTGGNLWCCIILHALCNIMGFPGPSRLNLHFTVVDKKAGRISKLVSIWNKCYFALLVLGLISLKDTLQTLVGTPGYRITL
Yeast UUG start: modulators of yeast start codon fidelity, primary screen, whole organism, S. cerevisiae, single point, plate reader | S. cerevisiae UUG-firefly luciferase reporter, luminescence/redox ratio | activity score, % at 18.7 µM | actives 0.13% (n = 350,000) | AID 602363, 2012;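 active = replicate mean at a twofold rise or more, about +100% in these data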;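 note: firefly luciferase made from a UUG start codon reports start codon fidelity; reporter light over untreated wells divided by growth signal over untreated wells; some hits fall short of that in this replicate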
MT1-MMP act inh: blockers of MT1-MMP proenzyme processing, primary screen, HT1080 RFP-PRO-GFP cells, GFP/RFP fluorescence; AID 651647, 2012; GFP/RFP ratio change, % at 20 µM; GFP/RFP ratio fluorescence, overnight; percent of plate control window, DMSO zero; actives 0.061% (n = 360,000);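 active = GFP/RFP ratio change of at least 30% with cell ATP level not reduced by more than half and red fluorescence within 50% of control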; note: strong numbers were not always called active
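Assay system: RFP-PRO-GFP reporter HT1080 cells; read-out basis: GFP/RFP fluorescence ratio; benchmarks: DMSO wells and RFP-L50D-GFP cells; doses: 20 µM single dose, 1% DMSO; schedule: overnight cell settling, then overnight compound exposure, 37 °C, 5% CO2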
eIF4H FP inh: human eIF4H binding inhibitors, primary screen, translation initiation inhibitor project, biochemical, uHTS, fluorescence polarization; inhibition, % at 35 µM; actives 0.94% (n = 290,000); Eukaryotic translation initiation factor 4H (Homo sapiens), Q15056; eIF4H fluorescence polarization binding assay; AID 2012, 2009;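 active = 50% or more with normal probe brightness, or confirmed in later tests; about a fifth of its hits are not listed in these tables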;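 note: calls also rest on retests at 20 µM and on dose response follow-up; 0% = protein and probe with vehicle and 100% = probe without protein; strong numbers were not always called active; many hits fall short of the cut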
PABP polyA inh: PABP poly(A) RNA binding inhibitors, primary screen, biochemical, fluorescence polarization, uHTS | Polyadenylate-binding protein 1 (Homo sapiens), P11940 | inhibition, % at 35 µM | actives 1% (n = 290,000) | AID 2014, 2009;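 active = 50% or more with normal probe brightness, or confirmed in later tests; about a fifth of its hits are not listed in these tables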;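 note: calls also rest on retests at 20 µM and on dose response follow-up; controls were probe without protein and protein plus probe with vehicle; some compounds called inactive have numbers as strong as hits; many hits fall short of the cut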
Env fusion inh: inhibitors of HIV-1 Env-driven cell-cell fusion, primary screen, HeLa-JRFL effector, CEM21 target cells, luciferase; inhibition, % at 12.3 µM; actives 1.1% (n = 360,000); AID 651610, 2012;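 active = mean replicate inhibition score of at least 50 and every replicate individually at or above 50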;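 note: 0% = plate neutral controls and 100% = maraviroc near 300 nM; one replicate is shown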
CSC inhib: cancer stem cell viability inhibitors, primary screen, luminescence; cancer stem cell-like cells viability; inhibition, % at 7.5 µM; actives 1.1% (n = 300,000); AID 2717, 2010;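 active = mean at 75% or more and at least half the replicates too; tested in HMLE shEcad cells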;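 note: 0% = median of negative and 100% = median of positive control wells; the first replicate is given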
eIF4H FP inh retest: recorded beside eIF4H FP inh, whose call it bears; inhibition, %; compound at 20 µM; confirmation average;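 mean of two retest wells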
PABP polyA inh retest: further read-out of PABP polyA inh, marked with its call; inhibition, %; compound at 20 µM; confirmation repeats;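 mean of two retest wells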
MT1-MMP act inh RFP: also measured in MT1-MMP act inh; calls as there; RFP signal change, %; measured here: RFP expression control read;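 0 = vehicle wells; hits needed this value within 50% of zero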
An asterisk follows results filed as active; i = inactive; nt = not tested or not shown.

SMILES | Rce1 inh | Yeast UUG start | MT1-MMP act inh | MT1-MMP act inh RFP | eIF4H FP inh | PABP polyA inh | Env fusion inh | CSC inhib | others
COc1ccccc1C(=O)NC(=O)CSc1nnc(SC)s1 | i | -23 | -4 | 1 | nt | nt | -33 | -2
O=C(CSc1ccccc1)N1CCN(c2ccc(F)cc2)CC1 | i | nt | 3 | 0 | nt | nt | 0 | -2
COC(=O)c1ccccc1NC(=O)C1CCC(=O)N1S(=O)(=O)c1ccc(C)cc1 (centres undefined) | i | nt | 0 | 4 | -10 | -5 | nt | -2
COc1ccc(S(=O)(=O)NCc2ccc(C(=O)N3CCN(Cc4ccccc4)CC3)cc2)cc1 | i | -1 | 2 | -15 | nt | nt | 18 | -9
CC(=O)Nc1ccc(NC(=O)CSc2nnc(COc3ccccc3C)n2CC2CCCO2)cc1 (centres undefined) | i | -4 | 3 | 1 | -4 | 0 | 7 | -1
COc1ccc(/C=C(/C#N)C(=O)Nc2cccnc2)cc1OC | i | 2 | -1 | 2 | 5 | 6 | 5 | -6
Cc1nn(-c2ccc([N+](=O)[O-])cc2)c2c1C(c1ccc(OC(F)F)cc1)N1C(=N2)C(=O)Nc2ccccc21 (centres undefined) | i | nt | -28 | -24 | -10 | -6 | 36 | 20
O=C(NCCN1CCCC(O)C1)c1cc(COc2cccc(C(F)(F)F)c2)on1 (centres undefined) | nt | -8 | 8 | 8 | nt | nt | 8 | nt
COc1ccccc1C(=O)Nc1ccnn1C1CCN(Cc2ccn[nH]2)CC1 | i | -4 | -1 | 3 | -13 | -2 | -9 | -7
O=C(Nn1c(-c2ccc(Br)cc2)nc2ccccc2c1=O)c1ccncc1 | i | nt | -2 | -3 | -2 | -1 | -44 | nt
O=C(Nc1c2c(nn1-c1cccc(Cl)c1)CS(=O)(=O)C2)c1ccc2c(c1)OCO2 | i | -13 | -1 | 0 | -13 | 5 | 4 | 3
CCn1c(COc2ccccc2C)nc2ccccc21 | i | -23 | -2 | -6 | -1 | 4 | nt | 0
CC(C)NC(=O)N1CCCN(c2nc3ccc(Cl)cc3s2)CC1 | i | 2 | 5 | -29 | -3 | 3 | 21 | -6
O=C(Nc1ccc2c(c1)OCCO2)c1cc2sccc2n1Cc1ccc(F)cc1 | i | -11 | -18 | -14 | 2 | 0 | -62 | -3
O=C(CSc1nnc(NC(=O)c2ccc(S(=O)(=O)N3CCOCC3)cc2)s1)Nc1ccccc1C(F)(F)F | i | -8 | 7 | -2 | -2 | -6 | nt | 0
CCN(C(=O)COC(=O)c1ccc(O)cc1)c1cccc2ccccc12 | nt | nt | -4 | -2 | nt | nt | -33 | 5
C=CCOc1cccc(CNCc2cccnc2)c1 | i | 93 | -2 | 3 | 10 | 21 | 8 | 5
COc1ccc(CNS(=O)(=O)c2ccc(N3CCCC3)cc2Br)cc1 | nt | -3 | 1 | -2 | nt | nt | -6 | nt
COc1ccc(C(=O)N2CCSCC2)cc1OC1CCN(C(C)=O)CC1 | nt | -10 | 1 | 3 | 1 | -2 | nt | 7
COc1cccc2cc(C(=O)Nc3cc(Cl)ccc3N3CCOCC3)c(=O)oc12 | i | -16 | -1 | 0 | -3 | 1 | nt | -11
O=C(c1ccccc1-n1cccn1)N1CCc2c([nH]c3ccccc23)C1c1ccccn1 (centres undefined) | i | nt | 0 | -1 | -6 | -7 | 42 | -21
Cc1nn(-c2ccccc2)c(N2CCCC2)c1/C=N/NC(=S)Nc1ccccc1C(F)(F)F | i | nt | -16 | -27 | 11 | 33 | 11 | 69
Cc1cccc(NC(=S)NCc2ccc3[nH]c4c(c3c2)CCCC4)c1 | i | -17 | 2 | -6 | -2 | 0 | 3 | nt
COc1ccc(OCC(=O)NNC(=O)c2cccc(C)c2)cc1 | nt | -4 | 1 | -1 | -16 | -14 | 15 | -6
O=C(Nc1nccs1)[C@@H]1CCCN1C(=O)c1cccs1 | i | 8 | -2 | -4 | -11 | 13 | -7 | -4
(further entries)
SMILES | Rce1 inh | Yeast UUG start | MT1-MMP act inh | MT1-MMP act inh RFP | eIF4H FP inh | PABP polyA inh | Env fusion inh | CSC inhib | others
N/C(=N\OS(=O)(=O)c1ccccc1)c1cccnc1 | nt | -19 | 5 | 7 | 2 | -8 | nt | 8
CCc1ccccc1NC(=O)CSc1nc2n[nH]c(C)c2c(=N)n1-c1cccc(OC)c1 | i | -19 | 2 | -6 | -2 | -6 | nt | -5
CS(=O)(=O)N1CCCCC1c1cc(C(=O)Nc2ccc3c(c2)OCO3)no1 (centres undefined) | nt | -11 | 2 | 1 | nt | nt | 6 | nt
O=C(Nc1ccc(Cl)c(C(F)(F)F)c1)C1Cc2c(-c3ccc4c(c3)OCO4)ccnc2O1 (centres undefined) | nt | -11 | 2 | -4 | nt | nt | 30 | nt
Cc1ccc(C(=O)c2c3ccc([N+](=O)[O-])cc3[n+]([O-])n2CCCN)cc1 | i | -16 | -13 | -3 | nt | nt | -23 | 13
O=[N+]([O-])c1ccc2c(c1)C(N1CCOCC1)/C(=C/COc1ccc(F)cc1)O2 (centres undefined) | i | -1 | -3 | 0 | 4 | -18 | nt | nt
Cc1c(C(=O)C(=O)NCCCn2ccnc2)c2ccccc2n1C | i | nt | 1 | 4 | 3 | -11 | -2 | -34
COc1ccc(OC)c(N(C(=O)c2ccco2)C(C(=O)NC2CCCC2)c2ccc(N3CCOCC3)cc2)c1 (centres undefined) | i | 17 | -2 | 1 | -4 | 0 | 2 | -6
O=C1c2ccccc2-c2nc3ccccc3nc21 | i | 3 | 2 | 8 | -10 | 0 | -78 | -2
COC(=O)CSc1nnc(COc2ccc3ccccc3c2)o1 | i | 1 | -2 | 0 | -4 | 5 | 12 | -12
C=CCOc1cccc(C(=O)N(C)C2CCCN(Cc3ccccc3F)C2)c1 (centres undefined) | i | 4 | 1 | 0 | nt | nt | -11 | 11
O=C(NC(=S)N1CCN(c2ccc(Cl)cc2[N+](=O)[O-])CC1)c1ccco1 | i | nt | 10 | 2 | -1 | 3 | -30 | -3
C=CC[C@@H](CC(=O)NCCO)C(=O)N[C@H](COC(=O)[C@H](CC=C)CC(=O)OC(C)(C)C)Cc1c[nH]c2ccccc12 | nt | 8 | -1 | 1 | nt | nt | -8 | 11
O=C(NCc1ccc(CNC(=O)c2ccco2)cc1)c1ccco1 | i | 7 | -3 | -1 | -14 | -17 | 10 | -5
Cc1ccc(CN2CCN(CCCn3cnc4c(OCc5ccccc5)ncnc43)CC2)cc1 | nt | -15 | 2 | -13 | nt | nt | 19 | nt
CN(CC(=O)Nc1ccc(Cl)c(Cl)c1)C(=O)CN1C(=O)NC2(CCCC2)C1=O | i | -6 | 2 | 2 | nt | nt | -7 | -1
CCC1COCCS(=O)(=O)N1Cc1ccc(Cl)cc1 (centres undefined) | i | -2 | 2 | 4 | -2 | -5 | -20 | 6
CCc1ccc(NC(=O)C2CCCN(S(=O)(=O)c3cccnc3)C2)cc1 (centres undefined) | i | nt | 2 | -3 | -5 | -6 | -5 | -1
O=C(COC(=O)CNC(=O)c1cccc([N+](=O)[O-])c1)Nc1nc2ccccc2s1 | i | 5 | -1 | 4 | 1 | -4 | 6 | -8
S=C(CN1CCCC1=S)N1CCOCC1 | i | -2 | 7 | 4 | nt | nt | -8 | 5
COc1ccc(C(=O)CSc2nnc(C(CO)NC(=O)c3ccc(OC)cc3)n2C)cc1 (centres undefined) | i | -10 | 2 | 5 | -4 | -13 | nt | nt
CCCn1c(NCc2ccco2)nc2ccccc21 | i | -14 | 5 | 4 | -3 | -15 | nt | -11
Cc1ccc(NC2CCCN(C(=O)c3ccc4nccnc4c3)C2)cc1C (centres undefined) | i | 11 | -1 | 6 | 1 | -2 | -7 | -16
COc1ccc(Cl)cc1NC(=S)N1CC(C)OC(C)C1 (centres undefined) | i | -2 | -1 | 3 | 4 | 12 | nt | 1
CCCN(CC(=O)Nc1ccccc1C)C(=O)c1sc2ccccc2c1Cl | nt | -19 | -1 | 0 | nt | nt | nt | 0
Continued.
SMILES | Rce1 inh | Yeast UUG start | MT1-MMP act inh | MT1-MMP act inh RFP | eIF4H FP inh | PABP polyA inh | Env fusion inh | CSC inhib | others
C=CCn1c(-c2csc3ccccc23)n[nH]c1=S | i | -2 | 1 | 8 | -9 | -3 | 1 | nt
CCOC(=O)c1cnc2sc3c(n2c1=O)CCCC3 | nt | -16 | 0 | -7 | -10 | 2 | nt | -1
CC1(C)Cc2ccccc2C(N/N=C/c2cccc(F)c2)=N1 | i | nt | -2 | -3 | -4 | 10 | -58 | -5
CCCn1c(=O)c(C(=O)NNS(=O)(=O)c2ccc(C)cc2)c(O)c2ccccc21 | i | nt | -13 | -11 | 2 | 4 | nt | 36
Cc1cccc(Cl)c1OCCCN1CCOCC1 | i | -1 | 2 | -1 | 18 | 9 | -19 | -7
CN(C)S(=O)(=O)c1ccc(C(=O)NCC(C)(C)N2CCOCC2)cc1 | i | -18 | 0 | 3 | -2 | -3 | -15 | -3
O=C(CCc1ccccc1)Nc1nncs1 | i | -13 | -1 | 3 | 0 | 0 | nt | -8
Cc1ccc(C)c(N2CCN(C(=O)CCc3nc(-c4ccc(F)cc4)no3)CC2)c1 | nt | -16 | 3 | 4 | nt | nt | -2 | nt
CCOC(=O)Cc1csc(NC(=O)C(C)Oc2ccc3c(C)cc(=O)oc3c2)n1 (centres undefined) | i | -9 | -6 | -8 | 4 | -4 | -10 | nt
CC(C)NC(=S)N1CCN(C(c2ccccc2)c2ccccc2)CC1 | i | nt | -17 | -6 | -4 | 6 | -5 | -7
CNc1snc(C)c1C(=O)OCC(=O)c1ccc(OC)c(F)c1 | nt | -1 | -6 | -18 | nt | nt | nt | 0
O=C(COC(=O)c1ccc(Cl)nc1)Nc1cccnc1Cl | nt | -4 | 1 | 6 | nt | nt | 11 | -5
CCN(CC)S(=O)(=O)c1ccc(NC(=O)Cc2cccs2)cc1 | i | -9 | 0 | 0 | 7 | 6 | -18 | 33
CN1OC[C@@H]2CN(S(=O)(=O)c3ccccc3)[C@H](c3ccc(-n4ccnc4)cc3)C[C@@H]21 | nt | 8 | 6 | 6 | nt | nt | -6 | nt
CCN(CC)CCNC(=S)Nc1ccc(F)cc1 | i | nt | 1 | 6 | 0 | -19 | 8 | 3
CCN1C(=O)[C@@H]2[C@@H](c3ccc(-c4cccc(Cl)c4)cc3)N3CCC[C@@]3(C(=O)OC)[C@@H]2C1=O | i | -7 | 8 | -3 | nt | nt | -3 | 21
CCOC(=O)c1c(-c2ccccc2)csc1NC(=O)CSc1nc(N)cc(N)n1 | i | -21 | -8 | -21 | -16 | 59 | nt | 17 | eIF4H FP inh retest=7;PABP polyA inh retest=1
CC(=O)Nc1cc(-c2ccc(C(=O)N3CCOCC3)cc2)cn2c(-c3ccc(F)cc3)cnc12 | nt | -7 | -5 | 0 | nt | nt | 21 | nt
Cc1nc(-c2ccccc2)nc2sc(C(=O)c3ccc(F)cc3)c(N)c12 | i | -21 | -23 | 4 | 2 | 1 | -21 | -2
COc1ccc(CNCCNC(=O)c2cccs2)c(OC)c1OC | i | nt | 0 | 1 | 6 | -6 | -7 | -17

Source: PubChem BioAssay
